BJeLR viability = lowers viability of BJeLR cells; 30,000 compounds, 0.64% hits; AID 2275; BJeLR fibroblasts viability, CellTiterGlo ATP luminescence, 48 h; HRASV12, hTERT and SV40 LT/ST transformed; viability loss activity score, % (concentration not given with the values); in the data active = viability loss activity score above about 50%; about a fifth of its hits are not listed in these tables;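 also: higher score means fewer live cells and less ATP luminescence; stock transfer was 50 or 100 nL into about 30 µL; 0% = vehicle wells and 100% = a reference killing control; one replicate is shown; the record names a cut of 85%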
A1 inh = blocks A1 activity; MEF A1-2A-BIM cells, caspase-Glo luminescence, 3 h; percent of clofoctol signal, DMSO as zero; caspase activation, % (test concentration not listed); 21,000 compounds, 0.51% hits; AID 2241;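 active = most replicate scores above 10, or exactly half above 10 with mean activity above 10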;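 also: effector caspase 3 and 7 activity cleaving a DEVD luciferin substrate; 50 nL library stock added to about 30 µL; numbers are from one replicate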
Numbers without * were called inactive; x = not tested or not shown. Only part of the results is shown; rates above refer to the full screens.

SMILES | BJeLR viability | A1 inh
C[C@@H]1CN([C@@H](C)CO)C(=O)c2cccc(NC(=O)Nc3ccc(F)cc3)c2O[C@@H]1CN(C)C(=O)Nc1ccccc1 | 0.1 | x
COc1ccc(NC(=O)N(C)C[C@H]2Oc3ccc(NC(=O)Nc4ccccc4)cc3C(=O)N([C@H](C)CO)C[C@@H]2C)cc1 | 0.1 | -0.5
CCc1ccc(C2CC(c3ccccc3)=NN2C(=O)CCCC(=O)O)cc1 (stereo not given) | -4.9 | 1.3
CC1(C)CC(=O)C2=C(C1)NC(Nc1nc3ccccc3o1)=NC2c1ccccc1 (stereo not given) | 1.5 | x
CC(C)NC(=O)N(C)C[C@@H]1Oc2c(NC(=O)c3nc4ccccc4s3)cccc2C(=O)N([C@@H](C)CO)C[C@@H]1C | -0.4 | x
CC(C)NC(=O)Nc1ccc2c(c1)C(=O)N([C@@H](C)CO)C[C@H](C)[C@H](CN(C)S(=O)(=O)c1ccc(Cl)cc1)O2 | 2.1 | 0.6
CCc1ccc(N2NC(=O)C(=C(C)C)C2=O)cc1 | 13 | 0.1
CC(=O)OC(C)(C)/C=C/C(=O)[C@](C)(O)[C@H]1C(O)C[C@@]2(C)[C@@H]3CC=C4[C@@H](C=C(O[C@@H]5O[C@H](CO)[C@@H](O)[C@H](O)[C@H]5O)C(=O)C4(C)C)[C@]3(C)C(=O)C[C@]12C (stereo not given in full) | -4.9 | 1.2
O=C(NCc1ccccn1)c1nnc(-c2cccc(Cl)c2)o1 | 1.3 | x
CC(C)CCNC(=O)C1CCN(C(=O)N(C)C)CC1 | 5.2 | 0.0
C[C@H]1CN([C@@H](C)CO)C(=O)c2cc(NC(=O)Nc3ccccc3)ccc2O[C@H]1CN(C)S(=O)(=O)c1cn(C)cn1 | -1.5 | 0.0
COc1ccc(S(=O)(=O)N(C)C[C@H]2Oc3ccc(NS(=O)(=O)c4ccc(Cl)cc4)cc3C(=O)N([C@H](C)CO)C[C@@H]2C)cc1 | 3.4 | -0.9
C[C@H]1CN([C@@H](C)CO)C(=O)c2cc(NS(C)(=O)=O)ccc2O[C@H]1CN(C)S(C)(=O)=O | 2.5 | 0.5
C[C@@H]1CN([C@H](C)CO)C(=O)c2cc(NC(=O)C3CC3)ccc2O[C@H]1CN(C)Cc1ccc(C(=O)O)cc1 | -2.5 | -1.1
C/C=C(/C(=C/C)c1ccc(O)cc1)c1ccc(O)cc1 | -5.1 | 0.1
C[C@H](CO)N1C[C@H](C)[C@H](CN(C)C(=O)Nc2ccc(F)cc2)Oc2c(NC(=O)Nc3ccc(C(F)(F)F)cc3)cccc2C1=O | -3.8 | x
C[C@@H]1CN([C@H](C)CO)C(=O)c2cc(NC(=O)Cc3cn(C)c4ccccc34)ccc2O[C@H]1CN(C)Cc1ccc(-c2ccccc2)cc1 | -0.9 | -0.2
O=C(NCc1csc(-c2cccs2)n1)c1cc(F)cc2c1OCOC2 | 7.3 | -1.6
C=C1C(=O)O[C@H]2C1CCC(C)=C1C(=O)C=C(C)[C@@]12O (stereo not given in full) | -4.2 | -0.3
Cc1ccc(C(=O)OC[C@H]2O[C@H](c3nnc4ncccn34)C[C@@H]2OC(=O)c2ccc(C)cc2)cc1 | -1.2 | -1.3
NN/C(=N/S(=O)(=O)c1ccccc1)N1CCCC1 | 2.4 | -0.2
COc1nc(-c2ccccc2Cl)c2cc(Br)ccc2n1 | 5.4 | -0.2
COc1ccc(NC(=O)Nc2cccc3c2O[C@H](CN(C)Cc2ccncc2)[C@H](C)CN([C@H](C)CO)C3=O)cc1 | -0.4 | x
COc1ccc(S(=O)(=O)N(C)C[C@@H]2Oc3ccc(NC(=O)C4CC4)cc3C(=O)N([C@@H](C)CO)C[C@H]2C)cc1 | 2.7 | 0.8
C=C(C(=O)O)C1CCC2(C)CCC(=O)C(C)=C2C1 (stereo not given) | -0.1 | 1.4
(further entries)
SMILES | BJeLR viability | A1 inh
Cc1cccc(C=Nc2c(C)n(C)n(-c3ccccc3)c2=O)c1 | -0.4 | 0.5
CC1(C)CC[C@]2(C(=O)O)CC[C@]3(C)C(=CCC4[C@@]5(C)CC[C@H](OC6O[C@H](CO)[C@@H](O)[C@H](O[C@@H]7O[C@H](CO)[C@@H](O)[C@H](O)[C@H]7O)[C@H]6O)C(C)(C)C5CC[C@]43C)[C@@H]2C1 (stereo not given in full) | 18 | -1.5
C=CCN1C(=O)/C(=C\c2ccccc2Cl)N=C1c1ccccc1 | -4.6 | 0.9
C[C@H]1CN([C@@H](C)CO)C(=O)c2cc(NC(=O)Nc3ccc(F)cc3)ccc2O[C@H]1CN(C)Cc1ccccc1 | -2.7 | -0.3
CC(C)c1cc(C(C)C)c(S(=O)(=O)N2CCCC2)c(C(C)C)c1 | 1.2 | -0.7
CC(C)NC(=O)N(C)C[C@@H]1Oc2ccc(NC(=O)CCCN(C)C)cc2C(=O)N([C@@H](C)CO)C[C@@H]1C | 3.2 | -0.5
CNC[C@@H]1Oc2c(NC(=O)Nc3ccc(F)cc3)cccc2C(=O)N([C@H](C)CO)C[C@H]1C | 0.4 | x
COc1ccccc1C(=O)n1nc(C)cc1C | 4.0 | 0.3
C[C@@H]1CN([C@@H](C)CO)C(=O)c2cc(NS(=O)(=O)c3cccs3)ccc2O[C@H]1CN(C)C(=O)Nc1cccc2ccccc12 | -1.1 | -0.1
COC(=O)C1=C(C)NC2=C(C(=O)CC(c3ccccc3)C2)C1c1ccccc1OC(C)C (stereo not given) | -16 | 1.0
COc1ccc(NC(=O)N(C)C[C@H]2Oc3ccc(NS(=O)(=O)c4c(C)noc4C)cc3C(=O)N([C@@H](C)CO)C[C@H]2C)cc1 | 3.6 | 0.0
COc1ccc(NC(=O)Nc2cccc3c2O[C@@H](CN(C)C(=O)Nc2c(C)noc2C)[C@@H](C)CN([C@@H](C)CO)C3=O)cc1 | -0.6 | x
C=CCn1nc2n(c1=O)-c1ccccc1SC2 | 4.9 | -1.4
O=C1CCCc2c1cc(C(=O)Nc1ccccc1)c(=O)n2-c1ccccc1 | -1.0 | 1.3
C[C@@H]1CN([C@H](C)CO)C(=O)c2cc(NC(=O)CCC(F)(F)F)ccc2O[C@H]1CN(C)S(=O)(=O)c1ccc(F)cc1 | -4.1 | 0.7
C[C@@H]1CN([C@@H](C)CO)C(=O)c2cc(NC(=O)Nc3ccc4c(c3)OCO4)ccc2O[C@H]1CN(C)Cc1ccc(C(=O)O)cc1 | 0.3 | 0.9
C[C@@H]1CN([C@H](C)CO)C(=O)c2cccc(NC(=O)c3ccc(-c4nccs4)cc3)c2O[C@@H]1CN(C)C(=O)Nc1ccc(C(F)(F)F)cc1 | 5.4 | x
C[C@@H]1CN([C@@H](C)CO)C(=O)c2cc(NC(=O)CCC(F)(F)F)ccc2O[C@H]1CN(C)Cc1ccc(C(F)(F)F)cc1 | -6.2 | -0.5
COC(=O)c1ccc2c(c1)N=C(C)c1cc(C)ccc1S2 | 5.0 | 0.4
C[C@@H]1CN([C@@H](C)CO)C(=O)c2cc(NS(=O)(=O)c3ccccc3)ccc2O[C@H]1CN(C)Cc1ccc(-c2ccccc2)cc1 | 5.3 | 0.3
O=C(NCCCN1CCOCC1)c1ccccc1 | -0.9 | x
C[C@@H]1CN([C@H](C)CO)C(=O)c2cc(NC(=O)Cc3cn(C)c4ccccc34)ccc2O[C@@H]1CN(C)CC1CCCCC1 | -4.1 | 2.7
Cc1cc(C)c(C)c(S(=O)(=O)N2CCN(c3ncnc4sc5c(c34)CCCC5)CC2)c1C | 2.7 | 0.4
COc1cc(CCc2ccc3c(c2)OCO3)oc(=O)c1 | 4.0 | -0.4
C=CCSc1nc2c(cnn2-c2ccc(Cl)cc2)c(=O)[nH]1 | -4.7 | x
Continued.
SMILES | BJeLR viability | A1 inh
CC(=O)OCC(=O)c1ccc2c(c1)CCN2C(C)=O | 16 | x
C=CCNC(=O)c1cc(-c2ccc(C)c(C)c2)nc2ccccc12 | -1.2 | 0.8
Cc1nnc(SCc2ccc(C(=O)N3CCOCC3)cc2)s1 | -1.4 | -0.5
COC(=O)c1ccc2nsnc2c1 | 0.2 | 0.4
C[C@H](CO)N1C[C@H](C)[C@H](CN(C)S(=O)(=O)c2ccc(F)cc2)Oc2c(NC(=O)Nc3ccc(C(F)(F)F)cc3)cccc2C1=O | 0.7 | x
CCN(CC)S(=O)(=O)c1ccc(C(=O)Nc2ccc3c(c2)OC(C)(C)O3)cc1 | 9.1 | -0.3
Cc1ccc(Cn2c(=O)cc(C(=O)NCc3cccs3)c3ccccc32)cc1 | 5.5 | 0.7
O=C(Nc1ccc(Br)cc1)C(Cc1ccccc1)NS(=O)(=O)c1cccs1 (stereo not given) | 1.1 | x
CC(C)(C)n1nc(-c2ccc(Cl)cc2)c2c(N)ncnc21 | 6.8 | 13*
CC1CCN(S(=O)(=O)Cc2ccccc2)CC1 | 1.9 | -0.1
COc1ccc(NC(=O)N(C)C[C@@H]2Oc3ccc(NC(=O)Nc4c(C)noc4C)cc3C(=O)N([C@H](C)CO)C[C@@H]2C)cc1 | -1.1 | -0.2
O=C(Nc1ccc(Cl)c(C(F)(F)F)c1)C(=S)NCc1ccco1 | -0.4 | -0.4
O=C(c1ccc2c(c1)OCO2)N(Cc1cccs1)C1(C(=O)NC2CCCC2)CCCCC1 | 4.4 | x
C=C(C(=O)O)[C@@H]1CC[C@@]2(C)C=CC(=O)[C@@H](CCC3(O)C(=O)C=C[C@]4(C)CC[C@@H](C(=C)C(=O)O)C[C@@H]34)[C@@H]2C1 (stereo not given in full) | -14 | -0.6
Cc1ccc(S(=O)(=O)Nc2ccc3c(c2)C(=O)N([C@H](C)CO)C[C@@H](C)[C@H](CN(C)S(=O)(=O)c2ccc(C)cc2)O3)cc1 | -1.0 | -0.6
C[C@H]1CN([C@@H](C)CO)C(=O)c2cccc(NC(=O)c3cnccn3)c2O[C@@H]1CN(C)CC1CCCCC1 | 0.7 | x
N#Cc1cnc2c(C(N)=O)cnn2c1N | -6.1 | 0.5
Cc1cc(-c2nc(C)c(-c3nnc(SCC(=O)Nc4ccccc4)n3C)s2)no1 | -2.4 | 1.0
O=S(=O)(c1ccc(C2CCCCC2)cc1)N1CCc2ccccc21 | 0.1 | x
CNC[C@H]1Oc2c(NS(=O)(=O)c3ccc(Cl)cc3)cccc2C(=O)N([C@H](C)CO)C[C@H]1C | 3.6 | x
Cc1cc(C(F)(F)F)n2ncnc2n1 | 1.9 | 1.0
CC(=O)NCCNc1nc2c(-c3ccc(Cl)cc3)nnn2c2ccccc12 | -5.6 | -0.1
C[C@H](CO)N1C[C@H](C)[C@@H](CN(C)S(=O)(=O)c2cn(C)cn2)Oc2c(NC(=O)C3CCCCC3)cccc2C1=O | -2.1 | x
C[C@@H]1CN([C@@H](C)CO)C(=O)c2cccc(NC(=O)c3cnccn3)c2O[C@@H]1CN(C)S(C)(=O)=O | -2.2 | x
C[C@H]1CN([C@@H](C)CO)C(=O)c2cccc(NS(=O)(=O)c3ccccc3)c2O[C@H]1CN(C)S(=O)(=O)c1cccs1 | 0.2 | x

In the list so far, two have bromine:
SMILES | BJeLR viability | A1 inh
COc1nc(-c2ccccc2Cl)c2cc(Br)ccc2n1 | 5.4 | -0.2
O=C(Nc1ccc(Br)cc1)C(Cc1ccccc1)NS(=O)(=O)c1cccs1 (stereo not given) | 1.1 | x

Further results follow.
SMILES | BJeLR viability | A1 inh
C[C@H](CO)N1C[C@H](C)[C@H](CN(C)S(C)(=O)=O)Oc2ccc(NC(=O)CCCN(C)C)cc2C1=O | 7.3 | 0.9
COc1ccc(NC(=O)Nc2cccc3c2O[C@H](CN(C)C(=O)Nc2ccc(C(F)(F)F)cc2)[C@@H](C)CN([C@@H](C)CO)C3=O)cc1 | 2.7 | x
CCN(CC)S(=O)(=O)c1cc(C(=O)Nc2ccccc2C)ccc1C | 2.7 | -2.1
C[C@H](CO)N1C[C@H](C)[C@@H](CN(C)S(=O)(=O)c2cn(C)cn2)Oc2ccc(NC(=O)CCN3CCOCC3)cc2C1=O | 3.8 | 1.4
N#Cc1c(-c2ccccc2)cc2c(c1N)c(=O)oc1ccccc12 | 3.7 | 0.2
Cc1cc(C(=O)Nc2cccc3c2O[C@H](CN(C)Cc2ccc(-c4ccccc4)cc2)[C@H](C)CN([C@H](C)CO)C3=O)n(C)n1 | 4.3 | x
C[C@H](O)c1nc2ccccc2c(=O)[nH]1 | -4.4 | -0.1
O=C(NCCc1ccccc1)c1ccc2c(c1)N(Cc1ccccc1)C(=O)CS2 | 1.1 | 0.1
O=C(/C=C/c1ccco1)N1CCn2c(nc3ccccc32)C1 | -4.0 | x
C[C@H](CO)N1C[C@H](C)[C@@H](CN(C)C(=O)Nc2ccc(F)cc2)Oc2c(NC(=O)C3CC3)cccc2C1=O | 2.3 | x

Part of the list above in order of count of non-hydrogen atoms, largest number first:
SMILES | BJeLR viability | A1 inh
Cc1cc(C(=O)Nc2cccc3c2O[C@H](CN(C)Cc2ccc(-c4ccccc4)cc2)[C@H](C)CN([C@H](C)CO)C3=O)n(C)n1 | 4.3 | x
C[C@H](CO)N1C[C@H](C)[C@H](CN(C)S(C)(=O)=O)Oc2ccc(NC(=O)CCCN(C)C)cc2C1=O | 7.3 | 0.9
N#Cc1c(-c2ccccc2)cc2c(c1N)c(=O)oc1ccccc12 | 3.7 | 0.2

Reformatted as tab-separated lines: entries from further up
Structure	BJeLR viability	A1 inh
N#Cc1c(-c2ccccc2)cc2c(c1N)c(=O)oc1ccccc12	3.7	0.2
C[C@H](CO)N1C[C@H](C)[C@@H](CN(C)C(=O)Nc2ccc(F)cc2)Oc2c(NC(=O)C3CC3)cccc2C1=O	2.3	x
